Lassa entry inh = Lassa virus entry inhibition. Potency, µM (top dose mostly 37.9 µM), inactives show top-dose activity change, negative = inhibition, actives largely listed as inhibitors. AID 540256. 300,000 compounds, 1.2% hits. Lassa virus pseudotype entry inhibition, cell reporter; control for the full effect not named in the record; active means well fitted inhibition curve with a large enough effect; inconclusive means small, poorly fitted or top-dose-only effect, or effect the other way; inactive means flat fitted curve, though single readings scatter; tested in HEK293 cells; note: % is set by controls: 0 for no effect and ±100 for the full control effect; nearly all actives have a fitted effect of over 50% in size; luciferase read-out
StopGo reporter = lowers the luciferase signal of an FMDV 2A StopGo reporter | human cells with a luciferase reporter of 2A StopGo recoding; control for the full effect not named in the record | Potency, µM (titrated, usually from 57.9 µM), for inactives: at the top dose signal change, negative = less light | 410,000 compounds, 1.2% hits; active = well fitted falling curve with a large enough effect; inconclusive = small, poorly fitted or top-dose-only effect; inactive = no such curve, though single readings can be large or run the other way; tested in HEK293T cells; note: % is set by controls: 0 for no effect and ±100 for the full control effect; nearly all actives have a fitted effect of over 45% in size; luciferase light after 4 h
SARS PLP yeast = blocks SARS-CoV papain-like protease in a yeast assay; Potency, µM (top dose mostly 32.9 µM), for inactives: at the top dose activity, positive = growth rescue; S. cerevisiae expressing SARS-CoV PLpro, growth rescue; control for the full effect not named in the record; 330,000 compounds, 0.19% hits; note: 0% is about no effect; nearly all actives have a fitted effect of over 55% in size; growth read by luminescence after 48 h
MARV entry inh = blocks Marburg virus binding to or entry into cells | 300,000 compounds, 1.8% hits | Potency, µM (series often up to 37.8 µM), without a hit: at the highest dose activity change, negative = inhibition, hits mostly inhibitors | Marburg virus pseudotyped entry inhibition, cell reporter; control for the full effect not named in the record; about a third of the inactives were read at about 46 µM; active = well fitted inhibition curve with a large enough effect; inconclusive = small, poorly fitted or top-dose-only effect, or effect the other way; inactive = flat fitted curve, though single readings scatter; tested in HEK293 cells; about a fifth of its hits are not listed in these tables; note: % is set by controls: 0 for no effect and ±100 for the full control effect; luciferase read-out
Cruzain inh Det = blocks cruzain activity in presence of Triton detergent | P25779 | AID 1478 | Potency, µM, for the others: max response, negative = inhibition, usual class: inhibitors | 200,000 compounds, 0.43% hits | purified cruzain, Z-FR-AMC fluorescence, 0.01% Triton; active = well fitted curve in the direction sought with a large enough effect; inconclusive = small, poorly fitted or top-dose-only effect, or another doubt; inactive = no such curve, though single readings can be large; an effect the other way counts as inactive or inconclusive;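 note: plate controls were neutral wells for no effect and buffer without enzyme for full effect; nearly all actives have a fitted effect of over 40% in size; top concentration of the series not given in the record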
Target sequence (P25779 123-467 limits assumed): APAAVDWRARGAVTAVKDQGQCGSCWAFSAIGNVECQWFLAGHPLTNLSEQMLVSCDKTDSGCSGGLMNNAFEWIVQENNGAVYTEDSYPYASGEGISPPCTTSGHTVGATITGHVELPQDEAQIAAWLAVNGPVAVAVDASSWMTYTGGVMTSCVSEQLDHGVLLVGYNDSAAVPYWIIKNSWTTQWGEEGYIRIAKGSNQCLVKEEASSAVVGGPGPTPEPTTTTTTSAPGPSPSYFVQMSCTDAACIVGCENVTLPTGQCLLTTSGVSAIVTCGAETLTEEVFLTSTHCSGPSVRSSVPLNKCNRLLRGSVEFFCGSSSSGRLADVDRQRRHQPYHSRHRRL
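Cysteine protease activity tested under reducing, mildly acidic conditions (100 mM sodium acetate pH 5.5, 5 mM DTT) plus 0.01% Triton X-100. Cruzain 1.5 nM; substrate Z-FR-AMC 2 uM; 15 min compound preincubation at room temperature.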
RE007 growth inh = less growth of the S. pombe RE007 Vpr strain. S. pombe RE007 Vpr strain, BacTiter-Glo ATP luminescence, 24 h; control for the full effect not named in the record. Potency, µM (series often up to 92.2 µM), for inactives: top-dose activity change, negative = less growth. 360,000 compounds, 0.21% hits. AID 651644; active = well fitted falling curve with a large enough effect; inconclusive = small, poorly fitted or top-dose-only effect; inactive = no such curve, though single readings can be large or run the other way;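 note: % is set by controls: 0 for no effect and ±100 for the full control effect; nearly all actives have a fitted effect of over 50% in size; the assay follows cell death caused by Vpr and the record does not say whether a fall means rescue or toxicity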
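Fission yeast RE007 carrying one integrated HIV-1 vpr copy, seeded at OD 0.01 in PMG+AL medium with 23 nL pinned compound. Grown 24 h at 30 degrees; viability read by BacTiter-Glo luminescence after 5 min.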
NS1 function inh = blocks influenza NS1 protein function; S. cerevisiae slowed by influenza A NS1, growth recovery by OD600; Potency, µM (highest dose often 46.1 µM), inactives show at the top dose activity, positive = more growth; 270,000 compounds, 0.4% hits; note: actives are rising curves; nearly all actives have a fitted effect of over 50% in size
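OD600 was taken as the measure of yeast growth restored by compound in an NS1-expressing S. cerevisiae strain. Cells had been washed out of glucose medium and diluted 1:100 into galactose -URA medium, pH 6.0.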
Cruzain noTriton = cruzain (T. cruzi) inhibition without detergent. P25779. purified cruzain, Z-FR-AMC fluorescence, no detergent. Potency, µM, without a hit: max response, negative = inhibition, hits mostly inhibitors. 200,000 compounds, 2.3% hits. AID 1476; active = well fitted curve in the direction sought with a large enough effect; inconclusive = small, poorly fitted or top-dose-only effect, or another doubt; inactive = no such curve, though single readings can be large; an effect the other way counts as inactive or inconclusive;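 note: plate controls were enzyme without inhibitor for no effect and buffer without enzyme for full effect; nearly all actives have a fitted effect of over 40% in size; top concentration of the series not given in the record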
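Detergent-free condition (0.00005% Triton X-100) in acetate buffer pH 5.5 with DTT. 1.5 nM enzyme and compound were pre-mixed 15 min, then 2 uM Z-FR-AMC substrate added; reaction progress from fluorescence change between first and third reads (60 s).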
The depositor's hits bear a star; ? = inconclusive; . = no result given; [ ] = remark or other dose. Unless noted, calls come from the whole dose curve; as a rule, active means well fitted rising curve with a large enough effect; inconclusive means small, poorly fitted or top-dose-only effect; inactive means no such curve, though single readings can be large or run the other way. Potency is the fitted concentration of half-maximal effect.

SMILES | Lassa entry inh | StopGo reporter | SARS PLP yeast | MARV entry inh | Cruzain inh Det | RE007 growth inh | NS1 function inh | Cruzain noTriton
COc1ccc(CCNC(=O)CN2C(=O)NC3(CCOc4ccccc43)C2=O)cc1 (centres undefined) | -3% | -18% | -1% | -2%[46.1 µM] | . | -13% | . | .
S=C(NCCc1ccccc1)N/N=C/c1c(Cl)cccc1Cl | 13% | 15% | -6% | -22% | -7.6% | 0% | 5% | -6%
O=C(NCCCCc1ccccc1)c1ccc(F)cc1 | 12%[46.1 µM] | 18% | . | ? | . | 33% | . | .
COc1ccc(-c2nc(N)sc2C2(O)C(=O)Nc3c(Br)cc(F)cc32)cc1OC (centres undefined) | 4% | 13% | -4% | 2%[46.1 µM] | . | -6% | . | .
COc1ccc(N2C(=O)CC(Sc3n[nH]c(-c4cccc(C)c4)n3)C2=O)cc1 (centres undefined) | 9% | -7% | -4% | ? | . | 20µM* | -2% | .
COc1ccc(C(CNc2ccc(S(=O)(=O)N3CCCC3)cc2[N+](=O)[O-])N2CCCC2)cc1 (centres undefined) | ? | -17% | 5% | ? | -2.9% | 2% | 5% | -3%
Cc1cccc(N(C)S(=O)(=O)c2c(C)[nH]c(C)c2C(=O)N2CCCC2)c1 | ? | 2% | -1% | ? | . | 4% | -8% | .
COc1cc(O)oc1C=Nc1ccc(Cl)cc1Cl | -2% | 15% | -7% | 18% | -0.3% | 2% | -51% | -8%
N#CCCNCC1(c2ccccc2)CCCC1 | 1% | 4% | -1% | 28% | 5.2% | -11% | 1% | 4%
Cc1ccc(C(=O)Nc2ccccc2)cc1S(=O)(=O)N1CCN(C)CC1 | . | 8% | 1% | . | . | -4% | -3% | .
CC(=O)Nc1sc(/C(C#N)=C\c2cccc(Cl)c2)nc1-c1ccc(C)cc1 | 5% | -15% | 3% | ? | -5.1% | 2% | 4% | -16%
CC1(C)Cc2nc(-c3ccccc3)nc(NNC(=O)c3ccco3)c2CO1 | 0% | 46%[activator] | -1% | 6% | . | -14% | -4% | .
Cc1cc(N/N=C\c2ccccc2)nc(-c2ccccc2O)n1 | 5% | -20% | -79% | -2% | -6.0% | -25% | 7% | -29%
O=C(NCc1ccncc1)Nc1ccc(Cl)cc1Cl | -7% | -5% | -4% | ? | -3.4% | -13% | -4% | -2%
O=C(O)c1ccccc1NS(=O)(=O)c1ccc2c(c1)OCCO2 | 9% | 32%[activator] | 0% | 1% | . | 21% | ? | .
COc1ccc(-c2c(C)nn3c(C(F)(F)F)cc(-c4ccccc4)nc23)cc1OC | 23%[46.1 µM] | -6% | . | -5%[46.1 µM] | 1.4% | . | . | -1%
Cc1ccc(O)c(C(=O)c2cnc3c(c2)c(C)nn3C)c1 | ? | -29% | -6% | -29%[46.1 µM] | . | -3% | -8% | .
Cn1c(=O)n(C)c2cc(CNCc3ccc(C(=O)O)cc3)ccc21 | 1%[46.1 µM] | -1% | . | . | 0.5% | . | . | -6%
COc1ccc(-n2nnnc2SCC(=O)N2C(C)CCCC2C)c(OC)c1 (centres undefined) | -8% | . | 2% | -23% | -1.1% | -5% | 2% | -24%
C=CCn1c(SCC(=O)Nc2cc(C)on2)nc2c([nH]c3ccccc32)c1=O | -10% | -2% | ? | -1% | . | -4% | -6% | .

Look-ups from the list:
CC1(C)Cc2nc(-c3ccccc3)nc(NNC(=O)c3ccco3)c2CO1 – StopGo reporter: 46%[activator]
O=C(O)c1ccccc1NS(=O)(=O)c1ccc2c(c1)OCCO2 – Lassa entry inh: 9%

Next results:
SMILES | Lassa entry inh | StopGo reporter | SARS PLP yeast | MARV entry inh | Cruzain inh Det | RE007 growth inh | NS1 function inh | Cruzain noTriton
O=C(NC1CCCCC1)C(c1ccco1)N(Cc1ccco1)C(=O)c1ccco1 (centres undefined) | 4% | -16% | -11% | 11% | 0.4% | 1% | 0% | 8%
Cc1ccc2c(Cl)c(C(=O)Nc3ccc4c(c3)OCO4)sc2c1 | ? | 29% | 4% | -11% | -3.0% | 12% | 20% | 20µM*
COc1ccc(C(=O)OCc2cc3cccc(C)c3[nH]c2=O)cc1 | -2% | -19% | 2% | 0% | 5.6% | -1% | ? | ?
Cc1cc(SCC(=O)OC/C(O)=C(\C#N)c2nc3ccccc3[nH]2)c(C)cc1Br | ? | ? | 1% | ? | . | 8% | 15% | .
COc1ccc(Cl)cc1N(C)C(=O)C(=O)Nc1ccc2nc3n(c(=O)c2c1)CCCCC3 | -5%[46.1 µM] | -22% | . | ? | -5.8% | . | . | ?
COCCNC(=O)CCCn1c(=O)c2ccccc2n(Cc2ccccc2C#N)c1=O | -2%[46.1 µM] | -4% | 1% | -4%[46.1 µM] | . | -1% | 4% | .
COc1cc(S(=O)(=O)N2CCOCC2)ccc1NC(=O)COC(=O)C12CC3CC(CC(C3)C1)C2 | -18% | -22% | 11% | ? | 0.6% | 20% | -52% | ?
COC(=O)c1ccc2c(=O)n(CCCCCC(=O)N3CCN(c4cc(C)ccc4C)CC3)c(=O)[nH]c2c1 | ? | -17% | . | . | -0.8% | . | . | 10%
CC(C(=O)Nc1ccccc1-c1ccccc1)N1CCN(C(=O)c2ccccc2)CC1 (centres undefined) | ? | -15% | 0% | ? | . | 2% | -13% | .
Cc1nc2sc(C(c3ccc(F)cc3)N3CCOCC3)c(O)n2n1 (centres undefined) | 1% | -6% | -7% | ? | 1.7% | -5% | 11% | 11%
COc1ccccc1-c1ccc(/C=N/O)o1 | ? | 18% | 1% | -2% | . | -23% | -44% | .
COCCOC(=O)C1=C(C)NC(=O)NC1c1cccc2ccccc12 (centres undefined) | . | 0% | 0% | . | . | 8% | 20% | .
Cc1cccc(N2CCN(C(=O)C3CCCN(S(=O)(=O)c4cccc5nsnc45)C3)CC2)c1C (centres undefined) | 18%[46.1 µM] | 0% | . | 5%[46.1 µM] | 0.6% | . | . | 1%
CC(C)(CNC(=O)CO/N=C1/C=C2CCC3C(C(O)C[C@@]4(C)C3CC[C@]4(O)C(=O)CO)[C@@]2(C)CC1)C(O)C(=O)O (some centres undefined) | . | 6% | 1% | . | . | 5% | 4% | .
COc1ccc(/C=C/C(=O)O)cc1S(=O)(=O)NC1CCS(=O)(=O)C1 (centres undefined) | . | 0% | 0% | -1%[46.1 µM] | . | -9% | . | .
O=C(NCC(c1cccs1)N1CCOCC1)c1ccc(Br)o1 (centres undefined) | ? | -5% | . | ? | 1.8% | 12% | 8% | 3%
CC(=O)[C@H]1CCC2C3CC[C@H]4C[C@H](O)CC[C@]4(C)C3CC[C@@]21C (some centres undefined) | -9% | . | . | ? | -6.4% | . | -7% | -15%
COc1cccc(C(=O)NCC(=O)NNc2ncnc(N)c2[N+](=O)[O-])c1 | -10% | 7% | 2% | 15%[46.1 µM] | . | -16% | . | .
CCOC(=O)c1cnc(SC)nc1Sc1ccccc1Cl | 4% | -21% | -25% | -9% | -1.3% | -20% | -4% | 0%
O=C1CCC2(CCCCC2)N1 | ? | 41%[activator] | . | 7%[46.1 µM] | . | 4% | . | .
CC(C)NC(=O)c1ccccc1NC(=O)CS(=O)(=O)Cc1ccccc1 | 0% | -2% | 3% | 3% | 3.1% | 5% | -1% | -4%
CCCCCn1c(CNC(=O)CC)nc2ccccc21 | . | -19% | 3% | . | -8.8% | -1% | -5% | 6%
O=C1/C(=C/c2ccc(F)cc2)SC(=S)N1CCCC(=O)N1CCCCC1CCO (centres undefined) | . | -23% | -8% | . | . | 6% | -51% | .
O=C(COC(=O)CNS(=O)(=O)c1ccc(Br)cc1Cl)NC1CC1 | 2%[46.1 µM] | 16% | -5% | -12% | . | 4% | . | .
O=C(NCCc1nnc2ccc(N3CCCCCC3)nn12)c1ccccc1 | 4% | -7% | ? | 5% | . | -16% | 8% | .
CCN(CC)/C(Sc1ccccc1)=C(/C(Cl)=C(Cl)Cl)[N+](=O)[O-] | -28% | -14% | -2% | -8% | . | 4% | . | .
CCCCOC(=O)c1ccc(OC(=O)c2cccnc2)cc1 | -6% | 38%[activator] | 15% | 23% | -3.3% | ? | -63% | -4%
Clc1cccc(NCc2nnc(SCc3ccccc3)o2)c1 | 22% | 10% | -4% | -23% | -3.0% | -6% | -44% | -2%
O=C(CNS(=O)(=O)c1cccs1)NCCc1ccc(Cl)cc1 | . | 8% | 1% | -2%[46.1 µM] | . | -29% | -4% | .
O=C(CCCc1ccccc1)NCc1ccc(Cl)cc1 | ? | -2% | -2% | 12%[46.1 µM] | . | 13% | -26% | .
COCC1CCN(C(=O)c2cc(COc3ccc(-n4cncn4)cc3)on2)CC1 | 3%[46.1 µM] | -5% | 0% | 21%[46.1 µM] | . | 16% | 6% | .
CC(=O)N[C@@H](C)C(=O)OC(C)C(=O)Nc1cccc([N+](=O)[O-])c1 (some centres undefined) | 22% | -5% | 0% | ? | . | 9% | . | .
COc1ccc(C(=O)Cn2c(=O)n3nc(CCn4nc(C)cc4C)nc3c3cc(OC)c(OC)cc32)cc1 | ? | -9% | . | . | 3.0% | . | . | 2%

In the list so far, these contain a cyano group.
SMILES | Lassa entry inh | StopGo reporter | SARS PLP yeast | MARV entry inh | Cruzain inh Det | RE007 growth inh | NS1 function inh | Cruzain noTriton
N#CCCNCC1(c2ccccc2)CCCC1 | 1% | 4% | -1% | 28% | 5.2% | -11% | 1% | 4%
CC(=O)Nc1sc(/C(C#N)=C\c2cccc(Cl)c2)nc1-c1ccc(C)cc1 | 5% | -15% | 3% | ? | -5.1% | 2% | 4% | -16%
Cc1cc(SCC(=O)OC/C(O)=C(\C#N)c2nc3ccccc3[nH]2)c(C)cc1Br | ? | ? | 1% | ? | . | 8% | 15% | .
COCCNC(=O)CCCn1c(=O)c2ccccc2n(Cc2ccccc2C#N)c1=O | -2%[46.1 µM] | -4% | 1% | -4%[46.1 µM] | . | -1% | 4% | .
